# Assay outcomes (PubChem BioAssay)
# GLA inh pH 4.5: blocks human alpha-galactosidase A at pH 4.5. AID 1467. 230,000 tested, under 10 active. activity change, negative = inhibition, % at 105 µM. purified enzyme, 4-MU-alpha-Gal fluorescence, pH 4.5. P06280; inconclusive = small, poorly fitted or top-dose-only inhibition, or a rising curve; inactive = flat fitted curve, though single readings scatter; no compound was filed as active;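 note: 0% = full activity with enzyme and -100% = basal without enzyme; dose as in the result columns while the protocol names 77 µM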
# Target sequence (P06280 whole entry, looked up): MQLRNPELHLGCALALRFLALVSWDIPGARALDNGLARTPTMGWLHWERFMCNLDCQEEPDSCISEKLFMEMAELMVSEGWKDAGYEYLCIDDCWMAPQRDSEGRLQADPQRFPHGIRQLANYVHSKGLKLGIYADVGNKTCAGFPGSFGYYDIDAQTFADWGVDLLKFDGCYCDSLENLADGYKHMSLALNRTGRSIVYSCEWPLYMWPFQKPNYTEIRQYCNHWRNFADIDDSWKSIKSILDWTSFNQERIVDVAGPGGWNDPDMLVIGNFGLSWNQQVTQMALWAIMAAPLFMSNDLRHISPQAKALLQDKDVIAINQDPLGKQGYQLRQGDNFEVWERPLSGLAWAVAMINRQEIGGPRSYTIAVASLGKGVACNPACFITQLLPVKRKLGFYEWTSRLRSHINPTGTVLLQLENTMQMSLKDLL
# Rango-impB inh: Rango-importin beta binding inhibition. Rango CFP/YFP FRET sensor + importin beta, 45 min. Potency, µM (series often up to 92.2 µM), without a hit: top-dose inhibition of complex formation. 340,000 compounds, 0.031% hits. AID 540263; active = rising FRET ratio curve, often small or poorly fitted; inconclusive = mostly compound fluorescence or quenching in the first reads; inactive = flat curves in all reads;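 note: potency is the fitted concentration of half-maximal effect; 0% = DMSO wells and 100% = buffer wells lacking importin beta; nearly all actives have a fitted effect of over 15% in size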
#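 FRET biosensor (snurportin 1 IBB flanked by EYFP and cerulean), 50 nM, with compound 5 min, then 0.125 microM importin beta in PBS, 1 mM DTT, 0.02% Tween-20, 0.1% BSA. CFP/YFP ratio read after 45 min at room temperature; pre-read flags interference.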
# Rango dissoc inh: inhibition of RanGTP-driven Rango-importin beta dissociation; O95149+P62826; Biochemical FRET Rango-importin beta, RanGTP-induced dissociation; Potency, µM (doses to about 46.1 µM), for the others: top-dose activity change, negative = inhibition; 340,000 compounds, 0.071% hits; AID 540253; active means falling FRET ratio curve, often poorly fitted, with flat reads before Ran was added; inconclusive means other falling curves, or compound fluorescence or quenching; inactive means flat or rising ratio curve;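 note: potency is the fitted concentration of half-maximal effect; % of control where 0% means no effect; nearly all actives have a fitted effect of over 45% in size; -100% = wells without RanGTP and RCC1; the record marks most hits as doubtful in a second field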
#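 Rango (0.1 uM)–importin beta (0.25 uM) complex; RanGTP-RCC1 trigger; 45 min RT; CFP/YFP FRET read.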
# miR-21 FLuc: miR-21 reporter, rising signal; HeLa miR-21 FLuc reporter, luciferase, 48 h; Potency, µM (series often up to 38.3 µM), for the others: at the top dose reporter change, positive = more light; 340,000 tested, under 10 active; AID 2288; active = well fitted rising curve with a large enough effect; inconclusive = small, poorly fitted or top-dose-only effect; inactive = no such curve, though single readings can be large or run the other way;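 note: % of control where 0% means no effect; miR-21 action dims this reporter so a rising signal means less miR-21 action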
#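 Compounds were titrated across several concentrations (up to approximately 40 uM) and incubated 48 hours with HeLa miR-21-FLuc reporter cells (miR-21 target sequence downstream of FLuc, endogenous miR-21). Readout was firefly luciferase luminescence after lytic detection reagent.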
# * hit, by the source's call; ? = inconclusive; nt = no result given; & = joins results of further samples. The list is partial. The share of hits here may be higher or lower than overall.
SMILES,GLA inh pH 4.5,Rango-impB inh,Rango dissoc inh,miR-21 FLuc
Cc1ccc(C#N)c(SCc2cccc(Br)c2)n1,nt,-1.7%,-0.6%,nt
COc1cc(/C=N/NC(=O)c2csc3c2CCCC3)ccc1OCCN1CCOCC1,nt,6.6%,4.9%,-24.9%
CCOc1ccc(NC(=O)CN2C(=O)NC3(CCCCCC3)C2=O)cc1,nt,-3.0%,17.0%,nt
COc1cc(/C=C2/C(=N)N3C=CSC3=NC2=O)ccc1OCCCOc1c(C)cccc1C,-6.3,?,-13.8%,-10.0%
CCOC(=O)c1sc(NC(=O)C2=COCCO2)c(C#N)c1C,nt,-0.7%,0.9%,nt
COc1ccccc1CN1CCC(CNS(=O)(=O)c2cc(-c3onc(C)c3C)ccc2OC)CC1,nt,1.4%,30.2%,-9.7%&-15.0%
COc1ccc(OC)c(CCNC(=O)Cn2nc(C)c3c(C)n(-c4ccccc4)nc3c2=O)c1,nt,2.9%,-1.4%,1.6%
CCOC(=O)c1cc(-c2ccncc2)nc2c1c(C)nn2-c1ccccn1,0.3,-1.9%,16.3%,-9.9%
COc1ccc(CCNC(=O)C(C(=O)c2ccc(F)cc2)n2ccccc2=O)cc1OC (stereo not given),-13.0,-3.0%,4.6%,-9.6%
O=C(O)CCC(=O)NCc1cn(-c2ccccc2)nc1-c1cccc(Br)c1,6.2,0.4%,-6.2%,-12.9%
NC(=O)c1ncn([C@@H]2O[C@H](CO)[C@@H](O)[C@H]2O)n1,3.5&-6.4,-0.6%,0.5%,0.8%
Cc1cc(NC(=O)COC(=O)CCC(=O)c2ccc(F)cc2)no1,-2.4,0.7%,-2.4%,0.6%
C/C(CC1CC2=C(CC1(C)C)C(C)(C)CCC2)=N\NC(N)=S (stereo not given),1.6,-1.3%,-0.9%,23.3%
COc1cccc(/C=N\NS(=O)(=O)c2ccccc2)c1OC,nt,1.1%,-17.2%,-1.0%
O=S(=O)(c1ccc(Br)s1)N1CCN(c2ccccc2)CC1,-4.4,2.9%,-18.1%,-6.8%
CCCCN(Cc1ccccc1)C(=O)C1CCC(=O)N(CCc2ccccn2)C1 (stereo not given),nt,-1.9%,7.3%,-0.8%
CCOC(=O)c1cccc(NC(=O)Nc2cc(OC)ccc2OC)c1,2.4,-1.3%,19.1%,-5.0%
CC1(C)C(=O)C=CC(=O)C(C)(C)C(=O)C=CC(=O)C(C)(C)C2=CC=C(O2)C(C)(C)C(=O)C=CC1=O,nt,-0.1%,-18.8%,nt
CCCc1cc(C(=O)Nc2nccs2)cs1,9.7,-1.1%,12.9%,-8.7%
Cc1ccc(S(=O)(=O)C2(S(=O)(=O)c3ccc(C)cc3)CCCC2)cc1,-3.5,4.0%,18.0%,17.3%
CCOC(=O)CSc1nc2sc3c(c2c(=O)[nH]1)CCCC3,3.3,4.1%,7.3%,-1.9%
CCC(C)NC(=O)Cn1cc(S(=O)(=O)N2CCN(c3ccccc3F)CC2)c2ccccc2c1=O (stereo not given),-26.5,-0.7%,-2.6%,-13.0%
C[n+]1ccccc1/C=C/c1ccccc1Cl,nt,-1.3%,-6.2%,-8.3%
C[C@H](CO)N1C[C@H](C)[C@@H](CN(C)C(=O)Nc2ccc(C(F)(F)F)cc2)Oc2c(NC(=O)Cc3ccccc3)cccc2C1=O,nt,-3.1%,0.4%,nt
CC(C)OCCCNC(=O)CNC(=O)c1ccc(Cl)c(Cl)c1,3.5,-0.8%,-1.8%,2.5%
COc1ccc2nc(NCCCNC(=O)c3cc(OC)c(OC)c(OC)c3)c(C#N)cc2c1,9.1,?,?,-14.4%
Brc1ccc(N=C(c2ccccc2)c2ccncc2)cc1,-0.1,0.0%,-0.4%,-1.0%
CCCCCn1c(N2CCN(c3cccc(Cl)c3)CC2)nc2c1c(=O)[nH]c(=O)n2C,-9.6,?,16.2%,-7.5%
COc1ccccc1N1CCN(C(=O)COc2cc(C)ccc2C)CC1,3.6,-2.9%,-3.0%,-2.2%
CC(C)(C)c1ccc(OCc2ccc(C(=O)NN)o2)cc1,-0.9,0.2%,-1.3%,-40.3%
CCCC(=O)Nc1cc(C(=O)O)ccc1Sc1ccccc1,0.0,-1.5%,3.8%,-3.1%
CN(CC(=O)Nc1ccccc1C(F)(F)F)C(=O)CSCc1ccc(Cl)c(Cl)c1,nt,?,-2.4%,nt
Cc1sc2ncnc(SCC(=O)NC(=O)NCc3ccco3)c2c1C,-0.6,3.8%,2.8%,-9.8%
CCOc1cc(/C=C2/NC(=O)N(CC(=O)Nc3cccc(C)c3)C2=O)ccc1OC,-24.1,-1.2%,1.4%,-2.7%
COc1ccc(-n2ccnc2SCC(=O)NO)cc1,11.2,-2.7%,-25.6%,-11.6%
CCOC(=O)N1CCC(N(CCN(C)C)C(=S)Nc2cccc(Cl)c2)CC1,3.9,-3.9%,-12.4%,-4.1%
CCOc1ccc(/C=C2\C(=O)c3ccccc3OC2c2ccccc2)cc1 (stereo not given),-19.7,-0.2%,-13.0%,-3.9%
C=CCOc1c(Cl)cc(CNCCC)cc1Cl,-0.7,1.9%,31.6%,8.7%
O=C(NC12CC3CC(CC(C3)C1)C2)c1cccc([N+](=O)[O-])c1,nt,-0.4%,2.7%,-16.3%
O=C(NC1CCCCC1)C(c1ccc(Cl)cc1)N(C(=O)c1ccccn1)c1cccnc1 (stereo not given),4.8,nt,nt,1.7%
O=C(Nc1ccc(N2CCCCC2)c(Cl)c1)c1ccc2c(c1)OCCO2,-3.3,0.8%,0.0%,-3.9%
CSc1ncccc1C(=O)NNC(=O)c1ccc(NS(=O)(=O)c2cccs2)cc1,nt,-2.9%,5.0%,nt
C=C(C)Cn1c(-c2ccncc2)n[nH]c1=S,5.4,0.6%,3.6%,2.1%
COc1ccc(C(=O)O/N=C(\N)c2ccccc2Cl)cc1OC,nt,-5.3%,5.3%,-35.8%
CC(C)c1ccc(NC(=O)CSc2nc3ccsc3c(=O)n2CCC(=O)O)cc1,nt,-2.0%,4.9%,-1.0%
O=C(NCc1ccccc1)c1cc[n+](Cc2ccccc2)cc1,-11.6,0.4%,-4.8%,0.3%
CS(=O)(=O)NCc1ccc(C(=O)NCCOc2ccccc2)cc1,-8.9,0.0%,-0.3%,-38.7%
CC1CC(C)(C)NC(=S)N1CC(=O)N1CCN(Cc2ccc3c(c2)OCO3)CC1 (stereo not given),3.9,-1.2%,8.6%,-0.6%
COc1ccc(-c2c(C)nn3c(N4CCOCC4)cc(C)nc23)cc1OC,nt,-1.6%,-9.8%,-6.6%
O=c1[nH]cnc2c1nnn2Cc1ccccc1,nt,-0.6%,4.8%,2.6%
Nc1c(C(=O)O)cnn1-c1ccc([N+](=O)[O-])cc1,3.0,-3.1%,-3.5%,12.8%
COC(=O)C1=NN(c2ccc(C)cc2)C2(S1)SC(C(C)=O)=C(C)N2c1ccccc1 (stereo not given),-4.8,-3.6%,0.8%,2.9%
O=C(O)CC(=O)Nc1ccccc1,-1.6,2.9%,1.1%,-2.1%
O=C(NCCc1ccc(Cl)cc1)c1ccc(=O)[nH]c1,nt,-1.2%,-4.5%,2.6%
Cn1c(SCCCC(=O)c2ccccc2)nnc1-c1ccncc1,-8.6,-0.5%,0.3%,0.0%
CCOc1ccc2nc(NC(=O)Cn3c(C)csc3=O)sc2c1,nt,-0.2%,-8.0%,nt
C=CCn1nnnc1-c1cc(Cl)cc(Cl)c1,-19.0,3.9%,2.2%,-1.5%
CCCCn1c(NCCO)nc2ccccc21,5.9,5.2%,-7.4%,-4.9%
COc1cc(-c2cc(N)n(S(=O)(=O)c3ccc(F)cc3)n2)cc(OC)c1OC,4.0,0.5%,-5.3%,17.3%
COc1cc(NC(=O)NCCN2CCN(c3ccc(Cl)cc3)CC2)ccc1C,-5.2,-4.4%,11.5%,12.6%

# Further records:
SMILES,GLA inh pH 4.5,Rango-impB inh,Rango dissoc inh,miR-21 FLuc
O=C1N[C@@H](Cc2ccccc2)COC(=O)[C@@H](Cc2ccc(F)cc2)C/C=C\C[C@@H]1CC(=O)N(CCO)Cc1ccccc1,nt,7.3%,0.7%,nt
O=S1c2ccccc2Nc2ccccc21,nt,-5.7%,-3.5%,nt
CC(=O)N1CCc2c(sc(NC(=O)C3CCN(S(=O)(=O)c4cccs4)CC3)c2C(N)=O)C1,nt,?,?,nt
O=C(NC(=S)Nc1ccc(S(=O)(=O)Nc2ncccn2)cc1)c1ccc(Br)cc1,1.4,1.2%,-1.6%,-5.9%
COc1cccc(-c2nnc3sc(-c4ccccn4)nn23)c1,3.0,-2.6%,29.4%,-37.0%
CCCc1cc(C(N)=O)c(NC(=O)c2ccoc2C)s1,-25.1,5.4%,-3.5%,7.8%
CCc1nnc(NC(=O)CCC(=O)N2CCN(C3CCCCC3)CC2)s1,3.1,-0.3%,-0.4%,1.6%
COc1cc(NC(=O)CSc2ncnc3sc4c(c23)CCCC4)c(C(=O)O)cc1OC,nt,-3.8%,-8.5%,0.0%
CC1=NN(c2ccccc2)C(=O)/C1=C\c1ccc(Oc2ccc([N+](=O)[O-])cc2[N+](=O)[O-])cc1,?,-0.3%,-2.9%,2.7%
COc1ccc(S(=O)(=O)N2CCOCC2)cc1Cl,5.2,6.6%,14.2%,-3.1%
CCN1CCN(C(=O)CCCCCn2c(=O)[nH]c3cc(C(=O)OC)ccc3c2=O)CC1,11.0,-4.5%,11.0%,1.4%
CCC(=O)Nc1ccc(C(=O)COC(=O)c2sc(C)nc2C)cc1,nt,-4.0%,0.7%,nt
NC(=O)CC(NC(=O)Cc1ccc(Cl)cc1)c1ccc(NC2CCCC2)c([N+](=O)[O-])c1 (stereo not given),4.9,-0.1%,13.7%,-3.5%
Cc1c(NC(=O)Nc2cccc(Cl)c2)c(=O)n(-c2ccccc2)n1C,-5.6,-3.7%,4.7%,1.5%
COC(=O)CCC(NC(=O)c1cc(C)oc1C)C(=O)OC (stereo not given),3.6,?,19.3%,-9.1%
O=C1Oc2ccccc2C(=O)/C1=C/c1ccccc1O,4.9,5.4%,21.0%,-2.8%
CC1(C2CC2)NC(=O)N(CC(=O)N2CCN(c3ccccc3)CC2)C1=O (stereo not given),nt,-2.4%,-8.8%,nt
COc1ccc(N2CCN(C(=O)c3ccc(COc4ccc([N+](=O)[O-])cc4)o3)CC2)cc1,nt,0.3%,12.1%,21.6%
COc1cc(/C=C/c2cc[n+](C)cc2)ccc1OCC(=O)Nc1ccccc1,nt,?,?,-17.3%
Cc1ccc(C(=O)c2oc3ccccc3c2N)cc1,-6.8,?,?,-53.1%
CN(Cc1cnn(C)c1)C(=O)C1CCCCC1C(=O)O (stereo not given),-1.8,-0.7%,2.2%,-9.2%
Cc1ccc(-c2nc3ccccc3[nH]2)cc1NC(=O)c1ccco1,-16.0,-1.3%,2.2%,-21.5%
Cn1ccc(C(=O)OCC(=O)c2ccccc2)n1,0.1,0.3%,1.0%,-13.3%
COc1ccc(S(=O)(=O)N2CCC(C(=O)Nc3ccccc3N3CCCCC3)CC2)cc1OC,nt,-1.6%,1.8%,-2.6%
CCC(=O)N1c2ccc(S(=O)(=O)CCC(=O)N3CCN(c4ccccc4F)CC3)cc2CC1C (stereo not given),nt,-3.0%,4.5%,3.0%
Cc1ccc(CNC(=O)C2=NNC(=O)CC2)cc1,0.9,-3.5%,9.0%,24.5%
COc1ccc(N=Cc2c(O)n(-c3cccc(C)n3)c(=O)c3ccccc23)c(OC)c1,-3.7,?,?,-0.9%
Cc1nc2n(n1)C(O)c1cc([N+](=O)[O-])ccc1S2 (stereo not given),-1.4,nt,nt,-6.8%
CC12COC3(C(=O)Nc4ccc(Cl)cc4)CC1CCC32C (stereo not given),4.5,-1.0%,-13.5%,-17.0%
O=S(=O)(c1ccc(Cl)cc1)N1CCN(Cc2ccc(O)c3ncccc23)CC1,-11.1,4.9%,0.5%,18.7%
CC1(C)CN(c2ccc(-c3ccnc4ncnn34)cc2)C1=O,?,8.0%,-3.2%,-3.6%
